Rango dissoc inh = inhibition of RanGTP-driven Rango-importin beta dissociation; Biochemical FRET Rango-importin beta, RanGTP-induced dissociation; 340,000 compounds, 0.071% hits; Potency, µM (series often up to 46.1 µM), without a hit: at the highest dose activity change, negative = inhibition; O95149+P62826; active means falling FRET ratio curve, often poorly fitted, with flat reads before Ran was added; inconclusive means other falling curves, or compound fluorescence or quenching; inactive means flat or rising ratio curve;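 further: potency means the concentration at half of the fitted maximal effect; % of control where 0% means no effect; nearly all actives have a fitted effect of over 45% in size; -100% = wells without RanGTP and RCC1; the record marks most hits as doubtful in a second field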
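Two FRET readings bracket the reaction: one 5 min after compound meets Rango–importin beta, another 45 min after RanGTP-RCC1 (0.6 uM Ran, 0.2 uM RCC1, 2 mM GTP) is added. Only the second defines inhibition.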
GLA inh pH 4.5 = blocks human alpha-galactosidase A at pH 4.5 | P06280 | purified enzyme, 4-MU-alpha-Gal fluorescence, pH 4.5 | activity change, negative = inhibition, % at 105 µM | 230,000 tested, under 10 active | AID 1467; inconclusive = small, poorly fitted or top-dose-only inhibition, or a rising curve; inactive = flat fitted curve, though single readings scatter; no compound was filed as active;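 further: 0% = full activity with enzyme and -100% = basal without enzyme; dose as in the result columns while the protocol names 77 µM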
miR-21 reporter = raises the signal of a miR-21 reporter | AID 2288 | HeLa miR-21 FLuc reporter, luciferase, 48 h | Potency, µM (titrated, usually from 38.3 µM), inactives show at the highest dose reporter change, positive = more light | 340,000 tested, under 10 active; active = well fitted rising curve with a large enough effect; inconclusive = small, poorly fitted or top-dose-only effect; inactive = no such curve, though single readings can be large or run the other way;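 further: % of control where 0% means no effect; miR-21 action dims this reporter so a rising signal means less miR-21 action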
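HeLa miR-21-FLuc reporter line, endogenous miR-21; 2000 cells/well in DMEM/10% FBS; compound titration up to ~40uM final, 48 h, 37 degree Celsius; luciferase detection reagent, 15 min lysis, CCD luminescence.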
Rango complex inh = prevents formation of the Rango-importin beta complex | Q14974 | Rango CFP/YFP FRET sensor + importin beta, 45 min | Potency, µM (highest dose often 92.2 µM), for inactives: at the highest dose inhibition of complex formation | 340,000 compounds, 0.031% hits | AID 540263; active = rising FRET ratio curve, often small or poorly fitted; inconclusive = mostly compound fluorescence or quenching in the first reads; inactive = flat curves in all reads;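 further: potency means the concentration at half of the fitted maximal effect; 0% = DMSO wells and 100% = buffer wells lacking importin beta; nearly all actives have a fitted effect of over 15% in size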
Target sequence (Q14974 whole entry, looked up): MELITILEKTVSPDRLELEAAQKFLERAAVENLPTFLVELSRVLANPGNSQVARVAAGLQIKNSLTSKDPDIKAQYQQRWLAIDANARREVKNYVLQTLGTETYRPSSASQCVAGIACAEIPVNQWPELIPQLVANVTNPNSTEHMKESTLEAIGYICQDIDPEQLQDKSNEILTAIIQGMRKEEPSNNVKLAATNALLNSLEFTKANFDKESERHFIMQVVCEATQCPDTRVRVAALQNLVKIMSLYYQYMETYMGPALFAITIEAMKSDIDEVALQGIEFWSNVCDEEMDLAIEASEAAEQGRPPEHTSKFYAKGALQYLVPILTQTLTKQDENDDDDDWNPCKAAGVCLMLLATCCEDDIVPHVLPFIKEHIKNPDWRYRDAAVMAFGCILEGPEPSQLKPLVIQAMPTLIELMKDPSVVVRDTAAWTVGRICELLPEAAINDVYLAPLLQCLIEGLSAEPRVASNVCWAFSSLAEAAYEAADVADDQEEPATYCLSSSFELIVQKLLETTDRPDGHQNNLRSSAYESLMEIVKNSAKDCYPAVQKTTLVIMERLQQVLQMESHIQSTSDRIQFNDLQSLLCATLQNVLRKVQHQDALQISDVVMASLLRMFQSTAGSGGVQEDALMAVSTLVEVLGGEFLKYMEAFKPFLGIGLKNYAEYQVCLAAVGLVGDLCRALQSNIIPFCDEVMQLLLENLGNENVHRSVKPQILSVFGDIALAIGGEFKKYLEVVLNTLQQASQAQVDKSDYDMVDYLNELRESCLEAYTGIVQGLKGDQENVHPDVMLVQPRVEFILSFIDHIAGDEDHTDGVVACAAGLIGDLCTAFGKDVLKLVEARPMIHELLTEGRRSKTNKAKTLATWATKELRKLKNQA
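Inhibition scored from the CFP 486 nm/YFP 530 nm FRET ratio 45 min after adding 0.125 microM importin beta to 50 nM Rango biosensor preincubated 5 min with compound (room temperature, PBS with DTT, Tween-20, BSA). No-importin wells as positive control.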
The depositor's hits bear a star; ? = inconclusive; nt = not tested or not shown; & = joins results of further samples; [ ] = another dose, or the depositor's remark. An excerpt. The share of hits here may be higher or lower than overall.

cpd | mol | Rango dissoc inh | GLA inh pH 4.5
1 | O=C1NC(CCc2ccccc2)C(=O)N1Cc1ccc(Br)cc1 (stereo not drawn) | -2% | 4
2 | CSc1cccc2sc(NC(=O)C3=COCCO3)nc12 | 13% | nt
3 | O=C(CCN1C(=O)C2CC=C(Cl)CC2C1=O)NC1CCCCC1 (stereo not drawn) | -13% | 4
4 | COc1ccc(C(C)=O)cc1CSc1nc2cc(Cl)ccc2o1 | -10% | -1
5 | O=C(NC1CCCC1)c1ccc(S(=O)(=O)N2CCOCC2)cc1 | 3% | -1
6 | Cc1oc(-c2cccc(Cl)c2)nc1CN1CCC(C(=O)NCc2ccco2)CC1 | 4% | -2
7 | Nc1nonc1C(=O)N/N=C/c1ccc(-c2cccc([N+](=O)[O-])c2)o1 | 0% | -3
8 | COc1ccc(Cl)cc1NC(=O)CN(C)C(C)C(=O)NC(=O)NC1CCCCC1 (stereo not drawn) | 10% | nt
9 | Cc1ccc2c(c1)N(CC(=O)NCCCN1CCCCC1)C(=O)c1cccnc1O2 | 17% | nt
10 | Cc1ccc(C)c(CSc2nnc(-c3cccnc3)n2N)c1 | 4% | -2

cpd | miR-21 reporter | Rango complex inh
1 | -3% | 0.6%
2 | nt | -1.6%
3 | 1% | ?
4 | -5% | -0.1%
5 | 1% | -2.1%
6 | -10% | -7.9%
7 | -2% | -2.2%
8 | nt | 0.4%
9 | 2%&-2% | -1.2%
10 | -4% | 2.2%

(list continues)
cpd | mol | Rango dissoc inh | GLA inh pH 4.5
11 | CC1CN(CCc2ccccc2)c2nc3c(c(=O)[nH]c(=O)n3C)n2C1 (stereo not drawn) | -15% | -7
12 | Nc1ccc(-c2cc(-c3ccc(N)cc3)nc(-c3ccccc3)n2)cc1 | 0% | 3
13 | O=C(NNC(=O)C1CCCN(S(=O)(=O)c2ccc3ccccc3c2)C1)C1CC1 (stereo not drawn) | -6% | ?
14 | Cc1nn(C)c(C(=O)N2CCN(C(=O)c3ccco3)CC2)c1Br | 5% | 2
15 | O=C(/C=C/c1ccccc1)NC1CCCc2ccccc21 (stereo not drawn) | nt | 6
16 | O=C(O)c1cnn(-c2nc(-c3ccc(Cl)c(Cl)c3)cs2)c1C(F)(F)F | 5% | nt
17 | O=C(CC(=O)c1cccc([N+](=O)[O-])c1)Nc1ccccc1Cl | 26% | 0
18 | COc1ccc(C(=O)COC(=O)c2ccc3c(c2)OCCO3)c(OC)c1 | -1% | nt
19 | CCOC(=O)CC(=O)CSc1nc2sc(C)cc2c(=O)n1Cc1ccco1 | 10% | -9
20 | COc1ccc(N(CC(=O)NC2CCCC2)C(=O)CCC(=O)Nc2cc(C)on2)cc1OC | -5% | nt

cpd | miR-21 reporter | Rango complex inh
11 | 14% | -0.1%
12 | 1% | 3.5%
13 | -2% | 1.8%
14 | 0% | ?
15 | 2% | nt
16 | -64% | -0.1%
17 | 4% | 1.1%
18 | nt | 0.0%
19 | 2% | ?
20 | 8% | 1.8%

Next part:
cpd | mol | Rango dissoc inh | GLA inh pH 4.5
21 | COc1ccccc1OCCN1CSC(=S)N(C)C1 | 1% | 7
22 | COc1ccccc1-c1nnc(SCC(=O)NC2CCS(=O)(=O)C2)n1N (stereo not drawn) | -16% | 0[21.1 µM]
23 | O=C(NC1CCCC1)c1cccc2c1C(=O)c1ccc(N3CCCCC3)cc1S2(=O)=O | ? | nt
24 | Cc1cc(=O)oc2c(C(=O)c3ccccc3)c(OCC(N)=O)ccc12 | 9% | 0
25 | CC(Oc1cccc(Cl)c1)C(=O)N(C)CC(=O)Nc1ccc(N2CCOCC2)cc1 (stereo not drawn) | -11% | nt
26 | CC(C)Oc1cccc(C(=O)C2CCCN(C(=O)c3cc(C(F)(F)F)[nH]n3)C2)c1 (stereo not drawn) | -2% | nt
27 | Cc1ccc(C)c(C(=O)COC(=O)Cn2c(C)csc2=O)c1 | 16% | nt
28 | CC(Oc1ccc2c3c(c(=O)oc2c1)CCCC3)C(=O)NCC(O)c1ccccc1 (stereo not drawn) | -8% | nt
29 | CC1CCCCN1CCCNC(=O)CN1C(=O)c2cccnc2Oc2ccc(Cl)cc21 (stereo not drawn) | 2% | nt
30 | O=C(COc1ccccc1Cl)NC(=O)NC1CCCCC1 | -5% | nt

cpd | miR-21 reporter | Rango complex inh
21 | -2% | ?
22 | 0% | -0.5%
23 | nt | ?
24 | 2% | -1.6%
25 | nt | 3.1%
26 | 16% | -1.8%
27 | 0% | 3.0%
28 | 0% | 2.5%
29 | 0%&-4% | 1.0%
30 | nt | 0.1%

Other results follow:
cpd | mol | Rango dissoc inh | GLA inh pH 4.5
31 | O=C(NCCCNCCCNC(=O)c1ccccn1)c1ccccn1 | 9% | 6
32 | O=C(O)c1ccc(N2C(=O)c3cccc4cccc(c34)C2=O)cc1 | -4% | nt
33 | COc1ccc(N2CCN(CC(O)COc3ccccc3[N+](=O)[O-])CC2)cc1 (stereo not drawn) | -1% | 11
34 | COc1ccc(NC2c3ccccc3C(=O)N2c2ccccn2)cc1 (stereo not drawn) | -2% | -2
35 | CCCCn1c(C)cc(C)c(S(=O)(=O)c2ccccc2C)c1=O | -2% | -1
36 | CN(C)c1ccc(/C=N/NC(=O)c2nonc2N)cc1[N+](=O)[O-] | 6% | -6
37 | COc1cc2c(cc1OC)CN(CC(=O)Nc1cccc(C)c1)CC2 | ? | 1
38 | COc1cc(C(C)=O)cc(OC)c1O | 0% | -11
39 | c1ccc(C[n+]2cccc3c4ccccc4ccc32)cc1 | -20% | 2
40 | CC(=O)Nc1ccc(S(=O)(=O)N(Cc2ccccc2)C(C)C)cc1 | -15% | 1

cpd | miR-21 reporter | Rango complex inh
31 | -6% | -0.1%
32 | -24% | 2.4%
33 | -10% | 0.3%
34 | -25% | -0.8%
35 | 13% | -3.7%
36 | -1% | 2.6%
37 | -11% | ?
38 | nt | -2.7%
39 | 28% | 0.4%
40 | 7% | ?

5 entries already listed, sorted by their value in miR-21 reporter, rising.
cpd | mol | Rango dissoc inh | GLA inh pH 4.5
34 | COc1ccc(NC2c3ccccc3C(=O)N2c2ccccn2)cc1 (stereo not drawn) | -2% | -2
32 | O=C(O)c1ccc(N2C(=O)c3cccc4cccc(c34)C2=O)cc1 | -4% | nt
37 | COc1cc2c(cc1OC)CN(CC(=O)Nc1cccc(C)c1)CC2 | ? | 1
33 | COc1ccc(N2CCN(CC(O)COc3ccccc3[N+](=O)[O-])CC2)cc1 (stereo not drawn) | -1% | 11
35 | CCCCn1c(C)cc(C)c(S(=O)(=O)c2ccccc2C)c1=O | -2% | -1

cpd | miR-21 reporter | Rango complex inh
34 | -25% | -0.8%
32 | -24% | 2.4%
37 | -11% | ?
33 | -10% | 0.3%
35 | 13% | -3.7%

Other structures
cpd | mol | Rango dissoc inh | GLA inh pH 4.5
41 | COc1cccc(CNC2CCCc3ccccc32)c1OC (stereo not drawn) | ? | -7
42 | CN(C(=O)c1ccc2c(c1)OCO2)C1CCCCC1 | -8% | nt
43 | CC(C)CCN(C(=O)C1CSC2(C)CCC(=O)N12)c1c(N)n(Cc2ccccc2)c(=O)[nH]c1=O (stereo not drawn) | -3% | nt
44 | O=C(Nc1ccc(N2CCOCC2)c(S(=O)(=O)Nc2ccc(Cl)cc2)c1)c1ccc(=O)[nH]n1 | 1% | nt
45 | O=C(Nc1ccc(S(=O)(=O)NC2=NCCCCC2)cc1)c1ccc([N+](=O)[O-])s1 | 9% | nt
46 | COCCCNC(=O)COc1cc(C)c(Cl)c(C)c1 | 7% | -2
47 | COc1ccc(OC)c(Nc2nc(-c3ccc(O)c(O)c3)cs2)c1 | -23% | -1
48 | O=C(CCC1CCN(Cc2ccccc2O)CC1)NC1CC1 | -24% | nt
49 | COc1ccc(CC2S/C(=N/N=C/c3ccc(O)cc3)NC2=O)cc1 (stereo not drawn) | 1% | -3
50 | CCc1nnc(NC(=O)CSc2nc3c(c(=O)n2C)SC(C)C3)s1 (stereo not drawn) | 14% | 5

cpd | miR-21 reporter | Rango complex inh
41 | 0% | -4.9%
42 | -39% | -1.6%
43 | nt | -0.9%
44 | nt | -3.2%
45 | nt | 6.6%
46 | -6% | 2.5%
47 | -2% | ?
48 | -3% | 0.3%
49 | -5% | 0.5%
50 | -3% | -2.5%

Next part:
cpd | mol | Rango dissoc inh | GLA inh pH 4.5
51 | COc1ccccc1C(=O)Nc1ccc2c(c1)CN(C(=O)CSC)CC2 | -2% | nt
52 | Cc1cc2cc3c(cc2nc1SCC(=O)OC(C)C)OCO3 | ? | -8
53 | O=C(CS(=O)(=O)c1cn(CC(=O)N2CCCC2)c2ccccc12)Nc1ccccc1F | 8% | nt
54 | CCOC(CNC(=O)C(=O)Nc1cc2c3c(c1)CC(=O)N3CCC2)OCC | -2% | nt
55 | CCn1c(=O)n(CC(=O)Nc2cccc(OC)c2)c(=O)c2ccccc21 | 3% | 2
56 | COc1ccccc1CNC(=O)CN(c1ccc(C)cc1)S(=O)(=O)c1c(C)nn(C)c1C | 6% | -5
57 | Cc1ccc(S(=O)(=O)NNC(=O)c2snnc2C)cc1 | -6% | 2
58 | CCOc1cc(C)c(C(C)C)cc1S(=O)(=O)N1CCN(C)CC1 | -11% | -12
59 | C=C(C)c1cccc(C(C)(C)NC(=O)Nc2ccc(OC)nc2)c1 | -4% | nt
60 | N#Cc1ccc(C23CC4(C2)[C@H](CN(Cc2ccc(-c5ccccc5)cc2)[C@@H]4c2ccccc2)C3c2ccc(C(F)(F)F)cc2)cc1 (stereo partly drawn) | 6% | 0&-16

cpd | miR-21 reporter | Rango complex inh
51 | -4% | 6.4%
52 | -5% | 3.7%
53 | -4% | 2.5%
54 | -2% | 1.1%
55 | -6% | -1.1%
56 | -4% | -2.2%
57 | 0% | -0.4%
58 | 1% | 1.0%
59 | 0% | 0.2%
60 | 0% | -1.1%

Reprinted at random: four compounds from above
cpd | mol | Rango dissoc inh | GLA inh pH 4.5
53 | O=C(CS(=O)(=O)c1cn(CC(=O)N2CCCC2)c2ccccc12)Nc1ccccc1F | 8% | nt
52 | Cc1cc2cc3c(cc2nc1SCC(=O)OC(C)C)OCO3 | ? | -8
58 | CCOc1cc(C)c(C(C)C)cc1S(=O)(=O)N1CCN(C)CC1 | -11% | -12
51 | COc1ccccc1C(=O)Nc1ccc2c(c1)CN(C(=O)CSC)CC2 | -2% | nt

cpd | miR-21 reporter | Rango complex inh
53 | -4% | 2.5%
52 | -5% | 3.7%
58 | 1% | 1.0%
51 | -4% | 6.4%

Remaining list, next part:
cpd | mol | Rango dissoc inh | GLA inh pH 4.5
61 | O=C(COC(=O)COc1ccc(Cl)cc1Cl)NC1CC1 | -5% | nt
62 | CCCC[n+]1ccn(-c2nc3ccccc3nc2[N-]S(=O)(=O)c2cccs2)c1 | -5% | 14
63 | COC(=O)C1C2CCC(C2)C1C(=O)OCC(=O)c1ccc(C)cc1 (stereo not drawn) | 11% | -8
64 | Cn1c(SCC(=O)NNC(=S)Nc2ccccc2)nnc1-c1ccccc1 | -1% | -9
65 | Cn1c(=O)c(=O)n(C)c2cc(S(=O)(=O)N3CCCC3C(=O)NCc3cccnc3)ccc21 (stereo not drawn) | 4% | 0
66 | O=C(c1ccco1)N1CCN=C1SCc1cccc(F)c1 | 2% | 4
67 | CCOC(=O)CNS(=O)(=O)c1ccc(C)cc1 | 2% | -6
68 | O=C(NC(CC(=O)N1CCN(c2ccccc2)CC1)c1ccccc1)c1ccccc1Cl (stereo not drawn) | -5% | -6
69 | NS(=O)(=O)c1ccc(NC(=S)NCc2ccccc2Cl)cc1 | 5% | 1
70 | COC(=O)c1cc(-c2cccc(OC)c2)n[nH]1 | -2% | 4

cpd | miR-21 reporter | Rango complex inh
61 | nt | -1.5%
62 | 14% | -3.3%
63 | -1% | 0.2%
64 | 4% | 0.5%
65 | 0% | -3.5%
66 | -5% | 2.8%
67 | -1% | -0.2%
68 | -4% | -3.0%
69 | -6% | 2.0%
70 | -23% | -1.2%

Screens: PubChem BioAssay, National Center for Advancing Translational Sciences (NCATS)
